# Beta apoptosis: inhibitors of cytokine-induced beta cell apoptosis, primary screen, luminescence | 0.8% of 300,000 active | AID 435005, 2010 | INS-1E cytokine-induced death, ATP luminescence, 48 h; percent of positive-control rescue, neutral wells zero | protection from apoptosis, % (no concentration beside the values);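 active = all replicates at 75% or more, or half of them and the mean; inconclusive = half reach 75% but not the mean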;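 note: 0% = cytokine-treated negative control wells and 100% = positive control rescue; higher means more ATP so stronger rescue from cytokine killing; wells of about 40 µL received 100 nL stock; the first replicate is given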
# MLL AF4-AF9 inh: inhibitors of AF4 peptide binding to AF9, primary screen, biochemical, AlphaScreen, biotin-AF4 peptide, FLAG-AF9, single point | 0.47% of 350,000 active | inhibition, % at 10 µM | Protein AF-9 (Homo sapiens), P42568;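 active = every replicate reaching a set inhibition limit, whatever the replicate mean, cut at about 25% in these data; inconclusive = mean inhibition reaches that limit but some replicates miss it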;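 note: 0% = plate neutral control median and 100% = total signal loss; the record names both 10 and 1 µM as test concentration; the first replicate is given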
# LANA-H2A inh: blockers of LANA interaction with H2A/H2B – biochemical, FP readout, HTS, primary screen | Protein LANA1 (Human herpesvirus 8 type P (isolate GK18)), Q9QR71 | cell-free LANA-H2A/H2B peptide, fluorescence polarization | inhibition, % (test concentration not listed) | 0.6% of 320,000 active; in the data active = inhibition mostly above about 10%, no sharp cut-off; inactive = mostly below about 6.7%;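 note: stock transfer was 7.5 nL into about 10 µL; 0% = median of vehicle wells and 100% = median of positive control wells; one replicate is shown; the record names a cut of 25% in any replicate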
# Target sequence (Q9QR71 whole entry, looked up): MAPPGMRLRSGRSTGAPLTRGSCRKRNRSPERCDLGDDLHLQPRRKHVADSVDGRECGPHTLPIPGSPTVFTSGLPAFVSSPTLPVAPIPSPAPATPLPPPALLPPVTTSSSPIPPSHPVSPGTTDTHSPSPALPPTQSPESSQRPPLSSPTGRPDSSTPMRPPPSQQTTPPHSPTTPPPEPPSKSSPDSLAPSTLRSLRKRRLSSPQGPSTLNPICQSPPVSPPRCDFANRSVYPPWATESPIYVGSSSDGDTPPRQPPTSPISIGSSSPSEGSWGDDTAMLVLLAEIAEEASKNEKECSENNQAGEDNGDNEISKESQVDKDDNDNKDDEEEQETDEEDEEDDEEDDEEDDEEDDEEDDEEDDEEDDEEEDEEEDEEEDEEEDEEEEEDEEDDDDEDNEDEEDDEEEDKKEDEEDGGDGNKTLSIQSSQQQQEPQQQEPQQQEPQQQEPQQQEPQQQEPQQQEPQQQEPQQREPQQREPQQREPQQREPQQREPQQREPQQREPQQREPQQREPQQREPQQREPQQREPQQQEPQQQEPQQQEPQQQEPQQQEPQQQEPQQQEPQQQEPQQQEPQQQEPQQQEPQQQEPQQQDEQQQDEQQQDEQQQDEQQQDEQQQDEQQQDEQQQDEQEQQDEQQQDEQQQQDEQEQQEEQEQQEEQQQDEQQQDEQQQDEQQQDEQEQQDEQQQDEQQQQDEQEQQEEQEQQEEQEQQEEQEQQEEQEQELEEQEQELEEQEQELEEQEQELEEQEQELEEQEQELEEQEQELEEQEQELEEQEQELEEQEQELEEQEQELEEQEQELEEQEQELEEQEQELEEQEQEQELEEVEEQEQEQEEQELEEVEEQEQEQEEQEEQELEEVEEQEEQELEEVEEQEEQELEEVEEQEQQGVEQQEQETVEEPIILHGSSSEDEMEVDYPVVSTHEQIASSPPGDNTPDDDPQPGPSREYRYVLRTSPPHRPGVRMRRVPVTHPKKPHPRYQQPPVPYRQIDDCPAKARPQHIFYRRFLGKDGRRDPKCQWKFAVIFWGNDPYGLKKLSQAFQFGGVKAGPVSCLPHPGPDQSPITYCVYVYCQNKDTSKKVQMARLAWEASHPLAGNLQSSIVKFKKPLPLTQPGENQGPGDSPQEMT
# Calb FLC: C. albicans growth inhibition with fluconazole, primary screen, CaCi-2 strain, Alamar Blue fluorescence. 0.57% of 300,000 active. growth inhibition, % (test concentration not listed). C. albicans CaCi-2 (fluconazole-resistant clinical isolate) + fluconazole, 48 h;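 active = most replicates above 75%; inconclusive = exactly half above 75%; inactive = most below 75%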;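 note: all wells also contain fluconazole at 8 µg/ml as a sub-toxic cotreatment; 0% = median of DMSO wells and 100% = median of geldanamycin control wells; wells of about 8 µL received 7.5 nL stock; the first replicate is given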
# T cruzi inh: inhibitors of intracellular T. cruzi growth, primary screen, luminescence, NIH3T3 host cells; T. cruzi beta-gal in NIH3T3, 90 h; inhibition, % (test concentration not listed); 1.4% of 300,000 active; AID 1885, 2009;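 active = mean inhibition across valid replicates above about 55%, limit read from the data; inconclusive = mean below that limit but half or more replicates reach it; inactive = mean below it, under half of replicates reach it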;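 note: signal also drops with host cell toxicity which is not excluded here; 0% = plate median of DMSO wells and 100% = zero luminescence signal; higher percent means less beta-gal luminescence so fewer parasites; stock transfer was 50 nL into about 50 µL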
# Vif A3G: inhibitors of Vif binding to APOBEC3G peptide, primary screen, biochemical, TR-FRET, GST-Vif 1-94, biotin-A3G peptide, dose response retest (AID 1117319); TR-FRET GST-Vif / biotin-A3G peptide binding; higher % means a stronger effect; test concentration not given here; strong numbers were not always called active; one-dose inhibition, %; IC50 in µM for titrated hits; 0.57% of 260,000 active;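 active = above the screen mean plus three standard deviations and confirmed in dose response; inconclusive = results disagree or hit not tested in dose response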;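 note: Vif residues 1-94 fused to GST binding biotinylated APOBEC3G peptide 110-148; 0% = full assay without inhibitor and 100% = GST in place of GST-Vif; retest series ran down from 100 µM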
# A1 inh: caspase 3/7 activation in MEF A1-2A-BIM cells, primary screen, A1 inhibitor project, cell-based, luminescence, HTS; 0.066% of 330,000 active; caspase activation, % (no concentration beside the values); Caspase-Glo 3/7 luminescence, 3 h; percent of clofoctol response, vehicle zero;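 active = over half of replicate activation scores above 10%, or exactly half above 10 with the replicate mean above 10; inconclusive = replicate mean below 10 yet half the replicates above 10; inactive = over half of replicates below 10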;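 note: wells of about 30 µL received 50 nL stock; many hits fall short of the cut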
# RanGTP-Imp inh: inhibitors of RanGTP-importin-beta interaction, primary screen, biochemical, FRET, CFP-Ran, YFP-importin-beta, homogeneous; 1.1% of 300,000 active; cell-free CFP-Ran/YFP-importin-beta FRET ratio; inhibition, % (concentration not given with the values);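 active = most replicates above 15%; inconclusive = exactly half above 15%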;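 note: 0% = DMSO wells and 100% = Ran loaded with GDP instead of GTP; wells of about 40 µL received 100 nL stock; the first replicate is given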
# Starred values were filed as active, the others as inactive; u = inconclusive; x = not tested or not shown.
SMILES,Beta apoptosis,MLL AF4-AF9 inh,LANA-H2A inh,Calb FLC,T cruzi inh,Vif A3G,A1 inh,RanGTP-Imp inh
Nc1ccccc1NC(=O)c1ccccc1N,-8.8,x,0.7,-4.1,-2.2,3.2%,-0.3,-2.4
COc1cccc(CN(CC(=O)NCc2ccco2)C(=O)CNS(=O)(=O)c2ccccc2)c1,-1.9,-2.2,4.0,21.3,1.4,x,0.2,-3.3
O=C(/C=C/c1ccccc1)NC(=S)Nc1ccccc1O,0.4,-1.9,-3.1,19.3,-14.8,x,0.0,-4.6
CCOc1cc(CNc2ccc(OC)cc2)cc(Br)c1OCC(=O)NC(C)(C)C,-0.9,x,12.9,-4.0,7.9,15.3%,0.7,4.1
O=C(Nc1nccs1)c1ccc(COc2c(F)c(F)cc(F)c2F)cc1,0.3,-1.2,3.5,-1.2,11.0,-13.2%,0.1,3.6
Cc1ccc2nc(Nc3ccccc3O)nc(-c3ccccc3)c2c1,3.3,2.7,-0.3,3.6,9.6,3.2%,0.7,1.4
COc1ccccc1/C=N/NC(=O)c1ccccc1Cl,-7.4,-0.8,4.0,8.5,-3.8,2.8%,-0.4,x
CCOc1ccc(-n2c(Cc3cc(=O)[nH]c(=O)[nH]3)nnc2SCC)cc1,1.2,x,-1.9,4.3,-26.5,2.6%,0.4,-3.6
COc1ccccc1Oc1ccc(N/C=C2/CCCC2=O)cc1,-4.1,x,4.6,-17.5,-17.2,11.7%,0.0,4.1
COc1ccc(NC(=O)Nc2ccc(F)cc2F)cc1,-1.4,-1.0,0.8,-5.2,-33.6,-4.7%,-9.2,-1.0
OCCN1CNC(=S)NC1,-1.3,-4.8,1.4,1.1,9.0,4.8%,0.2,0.3
CCCCC1(C(=O)OCC)CC(CSC(=N)N)OC1=O (stereo not drawn),-8.9,-3.1,-3.9,-2.0,-3.4,0.7%,-0.2,1.0
O=C1CC(c2ccccc2)n2nc(NC(=O)c3ccccn3)nc2N1 (stereo not drawn),-17.1,x,9.7,0.2,-10.7,4.4%,-1.1,1.9
CCCCN(CCCC)S(=O)(=O)c1ccc(OC)c2ncccc12,-3.5,x,4.3,1.7,14.2,-0.8%,0.7,-5.5
Cc1cc2c(n1-c1ccc(Br)cc1)CC(C)(C)CC2=O,x,x,-3.3,-7.2,57.9*,3.6%,0.0,0.8
N#CC1=C(Nc2ccccc2)SC=C(c2ccc(Cl)c(Cl)c2)N=C1N1CCOCC1,-0.1,x,3.2,1.2,24.3,-5.1%,0.5,4.3
Cc1ccc(CN(C)CC(=O)Nc2ccc3c(c2)CCC3)cc1,-0.5,-0.6,0.7,-24.7,14.2,x,0.8,0.7
Nc1ccc2c3c(cccc13)C(=O)N(c1ccccc1)C2=O,x,-1.6,x,3.9,0.8,-5.8%,x,-14.2
Cc1nc(N)nc(Cl)c1Cc1ccc(Cl)cc1,x,1.4,0.3,11.5,-25.1,10.3%,0.1,-5.0
CC(=O)Nc1ccc(NC(=O)COC(=O)c2ccccn2)cc1,-4.8,-0.9,-7.5,13.8,10.2,3.2%,0.1,3.1
COc1ccc(S(=O)(=O)Nc2ccccc2OC)cc1NC(=O)Cc1cccs1,4.5,x,2.4,-3.4,6.3,19.1%,-1.7,3.4
CC(C(=O)N1CCCC1)c1ccc([N+](=O)[O-])cc1 (stereo not drawn),4.7,1.7,-0.9,-5.7,-2.9,x,-0.1,3.0
N=c1n(-c2ccccc2)c(O)cc(=O)n1-c1ccccc1,-6.2,x,-0.5,23.6,-5.8,0.7%,0.5,2.0
COc1cc(SC)ccc1C(=O)N1CCN(c2ccccc2)CC1,-8.1,1.9,3.7,20.5,-5.2,3.6%,0.2,5.0
C#CCOc1ccccc1CNC1CCN(Cc2ccccc2)CC1,1.6,12.5,-4.6,-7.1,21.7,-3.0%,0.8,7.6

# 3 entries from above, arranged by their value in A1 inh, high to low.
compound	MLL AF4-AF9 inh	LANA-H2A inh	Vif A3G	A1 inh	RanGTP-Imp inh
CCOc1ccc(-n2c(Cc3cc(=O)[nH]c(=O)[nH]3)nnc2SCC)cc1	x	-1.9	2.6%	0.4	-3.6
Cc1nc(N)nc(Cl)c1Cc1ccc(Cl)cc1	1.4	0.3	10.3%	0.1	-5.0
Cc1cc2c(n1-c1ccc(Br)cc1)CC(C)(C)CC2=O	x	-3.3	3.6%	0.0	0.8

# Other records
SMILES,Beta apoptosis,MLL AF4-AF9 inh,LANA-H2A inh,Calb FLC,T cruzi inh,Vif A3G,A1 inh,RanGTP-Imp inh
Cc1nn(-c2ncc(C(F)(F)F)cc2Cl)c(=O)n1-c1ccccc1Cl,x,x,x,-7.6,-1.2,20.5%,x,-2.5
O=C(Cn1ncc(Cl)c(Cl)c1=O)Nc1ccc2c(c1)OCO2,-6.7,-4.8,7.5,x,x,-9.9%,0.3,x
CCOC(=O)c1c(C)nc2c(c1-c1cc(OC)c(OC)c(OC)c1)C(=O)c1ccccc1-2,x,x,1.5,29.9,26.1,1.9%,-0.1,-3.9
O=C(Nc1ccccn1)NC12CC3CC(CC(C3)C1)C2,4.6,x,-0.8,-2.8,3.0,0.3%,-1.0,-1.0
O=C(CCN1CCCCC1=O)NC1CCCc2c1cnn2-c1ccccc1F (stereo not drawn),-0.9,-2.7,-6.6,-4.7,-9.1,x,-0.3,1.9
Cn1c(=O)c2c(SCc3cccc(C(F)(F)F)c3)nc(-c3ccco3)nc2n(C)c1=O,4.1,x,-10.3,3.6,12.4,u,-0.2,-2.1
CC(C)C(=O)NC(NC(=S)Nc1cccc2cccnc12)C(Cl)(Cl)Cl (stereo not drawn),-4.7,x,-0.8,11.0,-20.5,14.9%,-0.4,-2.3
Nc1ncc(Br)cc1S(=O)(=O)NCCC(=O)N1CCN(c2ccccc2)CC1,2.6,-4.0,-2.1,-0.7,-4.5,2.9%,-0.3,1.9
O=C(NCc1cc(C(F)(F)F)cc(C(F)(F)F)c1)C1CC(c2c(Cl)cccc2Cl)=NO1 (stereo not drawn),5.5,x,-3.9,14.6,32.3,-9.1%,0.4,1.8
CN1CCN(C(=O)c2ccc(CN3CCOCC3)cc2)CC1,-0.1,x,3.9,1.3,-12.6,-3.3%,-0.7,1.4
CC1=CC=CN2C1=NC(=O)CC2(C)C(=O)N(CC(=O)NC1CCCC1)Cc1ccccc1 (stereo not drawn),-3.0,1.7,0.8,0.9,-7.4,x,0.1,2.3
O=C(CSc1nc2ccccc2c(=O)[nH]1)Nc1ccc(Br)cc1,4.3,0.5,-0.2,-7.5,-8.6,-5.9%,1.5,1.6
O=C(N/N=C1\CCSc2ccc(F)cc21)c1cccnc1,-0.8,5.0,1.3,9.6,-1.6,-14.2%,2.3,-0.5
COc1ccc(Cc2nnc(Nc3ccc(C)cc3C)[nH]c2=O)cc1,1.3,x,-1.1,-2.7,2.8,-0.4%,0.1,-0.9
Cc1ccc(S(=O)(=O)N2CCN(C(=O)CSC(=S)N3CCCC3)CC2)c(C)c1,7.9,5.1,-0.7,x,x,x,-0.6,x
COc1ccc(CNC(=O)c2ccc(C(C)C)cc2)cc1,x,-0.7,0.4,-9.0,-12.6,4.3%,-0.4,0.9
COC(=O)CSc1nnc(CNS(=O)(=O)c2ccc(Br)cc2)n1C,-1.2,0.0,-0.2,14.3,0.1,6.2%,0.7,-0.9
CCOC(=O)c1cnc(SCCN2CCOCC2)nc1N,x,-1.4,4.5,4.9,-3.4,-0.5%,-1.0,-1.0
CCOC(=O)C1=C(O)C(=O)N(c2ccc(S(N)(=O)=O)cc2)C1c1ccc(OC)cc1 (stereo not drawn),-2.9,-12.0,-2.5,-10.4,-7.4,-9.3%,1.8,5.9
COc1ccc(NC(=O)CSc2nnc(Cn3cnc4ccccc43)n2C)cc1,0.3,x,-1.5,6.2,3.8,3.7%,-0.8,-1.1
CCOc1ccc(CC(=O)NCC(=O)NCc2cc(=O)n(C)c(=O)n2C)cc1,0.0,-4.4,-3.6,x,-15.0,x,1.3,3.5
CC(C)c1ccc(OCC(=O)N(Cc2ccco2)C2CCS(=O)(=O)C2)cc1 (stereo not drawn),-2.5,4.5,1.2,-7.2,34.3,x,1.0,-1.7
Cc1cccc(NC(=O)c2ccc(S(=O)(=O)N3CCOCC3)cc2)n1,0.1,1.0,2.3,-9.6,0.4,8.9%,-0.1,2.0
CN(Cc1ccccc1)C(=O)c1[nH]cnc1C(=O)N[C@@H](Cc1ccccc1)C(=O)OCc1ccccc1,-4.1,x,-0.6,-26.3,-8.7,1.8%,-0.1,-0.3
CC1(C)Cc2c(sc3ncnc(NN)c23)CO1,-3.2,5.7,2.9,-4.6,-1.2,x,0.0,1.1

# Only MLL AF4-AF9 inh and Beta apoptosis (seven entries from above):
SMILES | MLL AF4-AF9 inh | Beta apoptosis
Cn1c(=O)c2c(SCc3cccc(C(F)(F)F)c3)nc(-c3ccco3)nc2n(C)c1=O | x | 4.1
CC(C)C(=O)NC(NC(=S)Nc1cccc2cccnc12)C(Cl)(Cl)Cl (stereo not drawn) | x | -4.7
Nc1ncc(Br)cc1S(=O)(=O)NCCC(=O)N1CCN(c2ccccc2)CC1 | -4.0 | 2.6
O=C(NCc1cc(C(F)(F)F)cc(C(F)(F)F)c1)C1CC(c2c(Cl)cccc2Cl)=NO1 (stereo not drawn) | x | 5.5
CN1CCN(C(=O)c2ccc(CN3CCOCC3)cc2)CC1 | x | -0.1
CC1=CC=CN2C1=NC(=O)CC2(C)C(=O)N(CC(=O)NC1CCCC1)Cc1ccccc1 (stereo not drawn) | 1.7 | -3.0
O=C(CSc1nc2ccccc2c(=O)[nH]1)Nc1ccc(Br)cc1 | 0.5 | 4.3

# Additional results
SMILES,Beta apoptosis,MLL AF4-AF9 inh,LANA-H2A inh,Calb FLC,T cruzi inh,Vif A3G,A1 inh,RanGTP-Imp inh
COc1cc(C(=O)N/N=C/c2cc([N+](=O)[O-])cs2)cc(OC)c1OC,27.2,x,-0.4,11.3,-45.3,x,2.0,4.0
COc1ccc(CNC(=O)C(=O)NCC2OCCN2S(=O)(=O)c2ccc(OC)c(OC)c2)cc1 (stereo not drawn),-2.6,-0.7,0.3,-0.5,10.1,x,0.9,6.0
Cc1cccc(N(C)C(=O)CCS(=O)(=O)c2cccc3nonc23)c1,-0.9,x,-3.1,-3.5,-7.9,-10.5%,u,-3.7
COc1ccc(NC(=O)N2CCCC2C(=O)NC2CCCC2)cc1 (stereo not drawn),4.2,0.3,-0.6,-8.7,-2.6,x,0.1,6.1
O=C(Cn1nc2n(c1=O)-c1ccccc1SC2)N/N=C/c1cccnc1,-4.2,0.8,4.3,1.8,-10.2,-9.8%,-0.1,4.4
C1CSC2(N1)C1CC3CC2CC(C1)C31NCCS1 (stereo not drawn),-3.2,x,2.0,-12.2,-22.2,-6.4%,0.1,3.2
CCOc1ccc(C(=O)NCCN2CCCCC2)c(OCC)c1,-3.0,-6.5,2.8,-2.6,16.0,x,0.7,u

# Assay outcomes from PubChem BioAssay.
